# Beta2AR agonist – human beta-2 adrenergic receptor agonism by FAP; Am2.2-beta2AR cells, FAP receptor internalization, flow cytometry; reference of the scale not given here; 0.43% of 340,000 active; response, % (test concentration not listed); AID 504454;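 active = response above a set limit, near 3 SD of response in nonfluorescent compounds, cut at about 42% in these data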;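 note: stock transfer was 100 nL into about 11 µL; a reference agonist was the positive control; negative values mostly stem from fluorescent compounds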
# Target sequence (P07550 whole entry, looked up): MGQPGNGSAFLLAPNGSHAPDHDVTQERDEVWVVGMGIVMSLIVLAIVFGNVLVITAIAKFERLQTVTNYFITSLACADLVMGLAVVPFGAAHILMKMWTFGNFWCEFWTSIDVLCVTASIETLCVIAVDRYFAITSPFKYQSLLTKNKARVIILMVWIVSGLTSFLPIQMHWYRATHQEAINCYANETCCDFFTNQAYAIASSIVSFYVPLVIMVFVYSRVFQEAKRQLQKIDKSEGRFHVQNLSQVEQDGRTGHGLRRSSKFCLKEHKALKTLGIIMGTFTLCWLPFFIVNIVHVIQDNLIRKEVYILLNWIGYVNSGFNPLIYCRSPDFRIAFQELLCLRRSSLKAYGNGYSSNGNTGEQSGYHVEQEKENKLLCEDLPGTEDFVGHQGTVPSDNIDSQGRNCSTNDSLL
# ALR inh – blocks human ALR sulfhydryl oxidase activity. P55789. purified ALR, DTT oxidation, H2O2 HRP-luminol luminescence. inhibition, % (no concentration beside the values). 3.8% of 290,000 active. AID 485317;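 active = mean and each replicate at 75% or more; inconclusive = only one of the two met; inactive = neither met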;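 note: stock transfer was 7.5 nL into about 7.5 µL; 0% = neutral wells and 100% = wells with inactivated enzyme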
# Target sequence (P55789 whole entry, looked up): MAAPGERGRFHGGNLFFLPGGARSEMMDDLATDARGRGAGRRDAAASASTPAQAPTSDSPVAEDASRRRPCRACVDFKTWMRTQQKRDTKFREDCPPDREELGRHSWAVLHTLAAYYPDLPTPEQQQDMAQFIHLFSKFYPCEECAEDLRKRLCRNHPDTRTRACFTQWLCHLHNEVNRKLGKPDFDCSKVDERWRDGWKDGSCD
# Vif A3G – HIV-1 Vif–A3G interaction blockers – biochemical, TR-FRET, GST-Vif 1-94, biotin-A3G peptide, dose response retest, primary screen (AID 1117319). TR-FRET GST-Vif / biotin-A3G peptide binding; higher % means a stronger effect; test concentration not given here; strong numbers were not always called active. inhibition, %, or IC50 in µM where a hit was titrated. 0.57% of 260,000 active;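 active = above the screen mean plus three standard deviations and confirmed in dose response; inconclusive = results disagree or hit not tested in dose response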;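 note: Vif residues 1-94 fused to GST binding biotinylated APOBEC3G peptide 110-148; 0% = full assay without inhibitor and 100% = GST in place of GST-Vif; retest series ran down from 100 µM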
# LANA-H2B inh – blocks KSHV LANA binding to histone H2A/H2B. inhibition, % (no concentration beside the values). cell-free LANA-H2A/H2B peptide, fluorescence polarization. AID 2629. 0.6% of 320,000 active. Q9QR71; in the data active = inhibition mostly above about 10%, no sharp cut-off; inactive = mostly below about 6.7%;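 note: stock transfer was 7.5 nL into about 10 µL; 0% = median of vehicle wells and 100% = median of positive control wells; one replicate is shown; the record names a cut of 25% in any replicate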
# Calb FLC – affects C. albicans growth with fluconazole | C. albicans CaCi-2 (fluconazole-resistant clinical isolate) + fluconazole, Alamar Blue growth, 48 h | growth inhibition, % (concentration not given with the values) | 0.57% of 300,000 active | AID 1979;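 active = most replicates above 75%; inconclusive = exactly half above 75%; inactive = most below 75%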;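 note: all wells also contain fluconazole at 8 µg/ml as a sub-toxic cotreatment; 0% = median of DMSO wells and 100% = median of geldanamycin control wells; wells of about 8 µL received 7.5 nL stock; the first replicate is given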
# HNF4A DNA FP – change in binding of human HNF4 alpha to DNA. 0.3% of 360,000 active. P41235. activity change, % at 10 µM. HNF4a-FITC DNA binding, fluorescence polarization, 1 h. AID 1224865; in the data active = activity change above about 30%, passing the limit was not always enough;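 note: controls were the assay level and a saturating level of protein; the project sought stronger binding though the title names inhibitors; some compounds called inactive have numbers as strong as hits; positive values seem to mean higher polarization but the record does not say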
# Target sequence (P41235 whole entry, looked up): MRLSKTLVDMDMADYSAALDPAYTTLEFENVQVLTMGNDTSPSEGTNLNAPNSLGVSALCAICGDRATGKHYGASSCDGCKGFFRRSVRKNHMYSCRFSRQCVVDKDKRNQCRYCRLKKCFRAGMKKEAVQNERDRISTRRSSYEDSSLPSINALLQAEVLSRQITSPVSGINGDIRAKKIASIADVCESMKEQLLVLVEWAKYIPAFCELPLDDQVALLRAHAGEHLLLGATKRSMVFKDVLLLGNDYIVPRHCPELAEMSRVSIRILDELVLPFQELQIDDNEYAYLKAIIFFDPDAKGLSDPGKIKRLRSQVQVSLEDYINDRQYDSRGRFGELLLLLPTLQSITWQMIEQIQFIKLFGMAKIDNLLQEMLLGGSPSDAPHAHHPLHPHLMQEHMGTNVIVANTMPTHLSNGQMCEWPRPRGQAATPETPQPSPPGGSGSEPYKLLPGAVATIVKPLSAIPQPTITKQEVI
# RanGTP-Impb inh – inhibitors of RanGTP-importin-beta interaction, primary screen, biochemical, FRET, CFP-Ran, YFP-importin-beta, homogeneous; cell-free CFP-Ran/YFP-importin-beta FRET ratio; inhibition, % (concentration not given with the values); 1.1% of 300,000 active;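 active = most replicates above 15%; inconclusive = exactly half above 15%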;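 note: 0% = DMSO wells and 100% = Ran loaded with GDP instead of GTP; wells of about 40 µL received 100 nL stock; the first replicate is given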
# The depositor's hits bear a star; ? = inconclusive; · = not tested or not shown. The order is random. Share with any hit: about 6.3%.
SMILES,Beta2AR agonist,ALR inh,Vif A3G,LANA-H2B inh,Calb FLC,HNF4A DNA FP,RanGTP-Impb inh
CCCN(Cc1cc2cccc(C)c2[nH]c1=O)S(C)(=O)=O,9.7,2.1,1.8%,1.0,-0.6,-1.8,-4.6
CCOC(=O)c1c(NC(=O)CSc2nnc3c(n2)[nH]c2ccccc23)sc2c1CCN(C)C2,13.9,-10.1,·,-2.1,-3.6,11.0,24.1*
COc1ccc(-c2nnc(-c3cccs3)o2)cc1OC,-17.0,·,25.2%,0.8,9.1,-3.9,-1.6
CCOC(=O)/C=c1\s/c(=C\c2ccccc2OC)c(=O)n1CC(=O)N1CCOCC1,-11.3,-8.8,4.7%,-5.7,·,-0.2,·
COc1ccc(N2C(=O)C(Cl)=C(NCc3ccccc3)C2=O)cc1,-2.8,·,-3.3%,1.5,0.0,0.2,11.2
O=C(c1ccc(Cl)cc1)N1CCOc2ccccc21,-3.0,-18.9,3.5%,2.4,-19.8,2.6,2.0
CC(C)NC(=O)Cn1cnc2c1c(=O)n(C)c(=O)n2C,15.0,-6.5,-6.4%,4.4,-1.0,-3.1,-3.2
CCOC(=O)C(C(=O)N(C)Cc1ccccc1)C1CCCCC1 (stereo not given),7.5,-2.2,·,2.8,-54.0,-0.8,0.6
CCn1c2ccccc2c2cc(/C(C)=N/O)ccc21,8.8,98.2*,19.4%,0.7,-4.1,0.6,-1.2
COc1ccc(-c2sc3ccc(OC)cc3c2-c2ccc(OCCN3CCOCC3)cc2)cc1,1.4,·,-11.7%,·,·,2.0,·
COc1ccc(C2CC(=O)CC(=O)C2n2cncn2)cc1 (stereo not given),2.4,-7.3,5.1%,-4.6,-0.1,-2.7,1.4
CC(C)S(=O)(=O)c1ccc(C(=O)Nc2ccc(F)cc2F)cn1,1.4,-0.6,0.2%,0.1,-13.5,1.1,-0.2
c1ccc(-c2ccc(-c3ccncn3)cc2)cc1,-2.6,-7.8,·,3.5,-8.1,-1.9,0.1
COc1ccc(-c2nc3c(n2O)CCc2c-3no[n+]2[O-])cc1,1.9,-3.6,10.8%,2.4,19.2,-3.1,1.7
CC(=O)N1N=C(c2cccc(NS(C)(=O)=O)c2)CC1c1cccs1 (stereo not given),2.2,-1.5,1.9%,0.6,2.9,-2.2,-0.3
O=C(CSc1ccc2ccccc2c1)NC1CCCc2ccccc21 (stereo not given),6.7,30.3,·,5.3,7.2,1.2,7.4
O=C(CCN1C(=O)S/C(=C/c2ccc(Cl)cc2)C1=O)N1CCOCC1,0.1,·,·,-2.1,-4.1,3.6,-0.3
COc1ccc(-n2nc(C(=O)NCC(=O)N3CCCC3)c3ccccc3c2=O)c(OC)c1,-10.4,-4.4,15.4%,3.6,-1.0,6.2,1.4
O=c1c2ccccc2nc2c3ccccc3ncn12,3.3,5.3,·,7.0,0.4,-1.2,-0.5
CC(C)[C@H]1C(=O)Nc2ccccc2N1C(=O)N[C@@H](Cc1ccccc1)C(=O)N[C@H](Cc1ccccc1)C(=O)O,4.3,-8.7,·,1.5,6.2,-0.3,-1.3
O=C(NCS(=O)(=O)c1ccccc1)c1ccccc1,1.6,12.9,6.1%,5.1,-0.5,1.0,-3.0
Cc1ccc(NC(=O)OCc2cc(-c3ccccc3)on2)cc1,11.3,-16.5,-7.5%,3.9,-3.9,-1.1,-2.0
COc1cc2c(C)nc3c(cnn3-c3ccccc3)c2cc1OC,10.0,-23.3,-19.1%,5.7,9.5,1.1,7.5
CCOC(=O)c1cc(-c2ccccc2)sc1NC(=O)CN1C(=O)NC(CC)(c2ccccc2)C1=O (stereo not given),7.2,-7.5,-0.5%,1.3,-1.4,-1.6,-0.7
Cc1ccccc1-c1cc2c(nn1)-c1ccccc1C2=O,-6.2,-35.2,?,0.8,-11.6,1.8,4.0
Cc1ccc2nc(NCc3ccccc3)c(C=O)c(=O)n2c1,-4.6,4.2,-5.0%,2.8,4.2,-1.4,3.0
CCOC(=O)N1CCN(c2nc(-c3cccs3)cc(C(F)(F)F)n2)CC1,-3.1,-16.3,-11.3%,-2.4,-8.4,-4.6,1.9
Cc1ccc(-n2ncc3c(=O)[nH]c(SCC(=O)NCC4CCCO4)nc32)cc1 (stereo not given),3.7,30.9,·,2.7,·,1.9,·
O=C(CN(c1ccccc1F)S(=O)(=O)c1ccccc1)Nc1ccc2c(c1)OCCO2,11.3,0.4,-2.2%,-8.2,7.7,0.8,2.4
O=C(O)c1ccc2c(c1)C(=O)N(c1ncccn1)C2=O,12.9,0.0,·,4.0,-1.4,-0.4,4.3
O=C(Nc1ccc2c(c1)OCCO2)Nc1ccc2c(c1)OCO2,5.6,-2.2,-1.5%,2.1,-12.5,-2.4,1.8
CN1CC2CCCC3(C1)C(=O)NC1(CCCCC1)N=C23 (stereo not given),-7.9,·,18.1%,-0.8,1.4,-4.2,4.6
CSc1ncccc1C(=O)OCC(=O)N1CCN(S(=O)(=O)c2ccc(C)cc2C)CC1,-2.4,-0.7,-8.6%,-0.1,·,-0.5,3.8
CC(=O)Nc1cccc(C(=O)NC2CCCc3c2cnn3-c2ccc(C(C)(C)C)cc2)c1 (stereo not given),3.6,·,5.6%,-0.9,-2.8,0.7,?
Cc1csc(NC(=O)c2sc3nc(-c4cccs4)ccc3c2N)n1,·,-7.0,-3.8%,-24.9,10.3,·,?
CCCc1cc(=O)n2[nH]c(-c3cccc(Br)c3)cc2n1,9.8,-2.8,·,-3.2,18.1,-1.6,-2.3
CCN(C(=O)COC(=O)CSc1ccc(C)c(C)c1)C1CCS(=O)(=O)C1 (stereo not given),-3.4,0.1,·,-0.6,-0.8,0.2,?
CCCCN(C(=O)/C=C/c1ccco1)c1c(N)n(CC(C)C)c(=O)[nH]c1=O,9.3,5.4,3.5%,-2.5,-4.1,5.1,1.9
O=C(NCc1ccc2c(c1)OCO2)C1CCCN1C(=O)Nc1ccc(F)cc1 (stereo not given),-2.4,-11.8,-5.2%,3.3,?,-2.4,4.9
CCCCc1nnc(NC(=O)c2nc3nccc(C)n3n2)s1,0.6,39.5,1.6%,-0.4,0.2,0.9,2.2
Cc1ccc(-n2c(C)nc3c(cnn3-c3ccc(F)cc3)c2=O)cc1,6.2,-1.5,26.0%,2.0,33.4,2.2,-2.4
CCN1CCN(C(=O)CN(C)S(=O)(=O)c2cc(C)ccc2OC)CC1,-3.0,2.9,3.1%,1.4,-3.2,0.7,-1.3
CCOC(=O)c1sc2ccc(S(=O)(=O)N3CCCCC3)cc2c1N,6.4,0.7,-2.5%,0.1,4.0,-1.3,-1.5
Cc1[nH]c2ccccc2c1/C=N/NC(=O)Cc1cccs1,-10.9,93.9*,2.5%,4.1,8.3,-1.3,7.8
CCOC(=O)c1[nH]c(C)c(C(=O)OCc2ccc(C)cc2)c1C,0.1,-4.0,·,-1.4,2.6,3.6,-9.0
Cc1ccc(C)c(NC(=O)CCC(=O)N/N=C/c2cc([N+](=O)[O-])ccc2O)c1,65.0*,7.2,-10.7%,-1.4,5.6,2.4,?
Cc1ccc(C)c(OCC(=O)Nc2ccc(S(=O)(=O)N3CCN(C)CC3)cc2)c1,-2.6,-3.0,?,0.4,3.6,4.6,0.0
N#Cc1cccc(C(=O)OCc2cccc(S(=O)(=O)N3CCOCC3)c2)c1,3.4,·,-2.5%,·,·,0.1,·
O=[N+]([O-])c1ccc(CS(=O)c2ccccc2)cc1 (stereo not given),-5.8,·,0.7%,·,·,-0.4,·
CCCn1c(CN2CCN(C(=O)OCC)CC2)nc2cc([N+](=O)[O-])ccc21,-10.2,·,-2.7%,0.4,-0.4,-0.6,1.8
COC(=O)C1=C(C)N(c2ccc(OC)c(OC)c2)C(=O)C1,4.0,3.6,26.7%,1.7,4.2,0.9,2.0
O=C(Nc1ccc([N+](=O)[O-])cc1)c1cccc(S(=O)(=O)Nc2cccnc2)c1,1.1,-1.2,·,-3.6,3.7,1.4,4.1
OCCCNc1nc(-c2ccccc2)c2cc(Br)ccc2n1,-4.5,-1.3,·,0.3,11.4,1.2,32.6*
CC(=O)n1cc(/C=N/NC(=O)c2ccc(Cl)cc2)c2ccccc21,-2.5,·,-1.1%,-1.4,2.8,1.9,7.3
Nc1ccc(NS(=O)(=O)c2ccccc2)cc1,0.4,99.8*,7.0%,-3.5,1.4,2.6,4.5
Cc1ccn2c(=O)nc(SCC(=O)NCc3ccc(F)cc3)nc2c1,-14.0,-1.5,11.8%,2.7,-0.2,2.4,7.8
Cc1ccc2nc3ccc(N4CCN(C)CC4)nn3c(=O)c2c1,-9.3,-1.7,-7.4%,0.0,-3.8,2.2,-0.3
Cc1ccc(S(=O)(=O)N(C)C)cc1NC(=O)CCCNC(=O)c1ccc(Cl)cc1,-7.8,-1.8,0.0%,1.8,-11.7,-1.7,-4.5
CC1CCC2(CC1)NC(=O)N(CC(=O)Nc1cccc(S(=O)(=O)N3CCCCC3)c1)C2=O (stereo not given),3.4,0.0,·,6.9,·,5.8,·
CCOc1cc(OCC)cc(C(=O)NCCCN2CCOCC2)c1,-2.7,·,11.0%,0.1,-7.5,1.0,-1.0

# 3 entries from above, ordered by the value under Vif A3G, highest first:
canonical_smiles | Vif A3G
O=[N+]([O-])c1ccc(CS(=O)c2ccccc2)cc1 (stereo not given) | 0.7%
CC(=O)n1cc(/C=N/NC(=O)c2ccc(Cl)cc2)c2ccccc21 | -1.1%
CCCn1c(CN2CCN(C(=O)OCC)CC2)nc2cc([N+](=O)[O-])ccc21 | -2.7%

# Whole records, quoted from the list:
# Entry for Cc1ccn2c(=O)nc(SCC(=O)NCc3ccc(F)cc3)nc2c1 = Beta2AR agonist = -14.0; ALR inh = -1.5; Vif A3G = 11.8%; LANA-H2B inh = 2.7; Calb FLC = -0.2; HNF4A DNA FP = 2.4; RanGTP-Impb inh = 7.8
# Entry for OCCCNc1nc(-c2ccccc2)c2cc(Br)ccc2n1 = Beta2AR agonist = -4.5; ALR inh = -1.3; Vif A3G = ·; LANA-H2B inh = 0.3; Calb FLC = 11.4; HNF4A DNA FP = 1.2; RanGTP-Impb inh = 32.6*

# Later entries
SMILES,Beta2AR agonist,ALR inh,Vif A3G,LANA-H2B inh,Calb FLC,HNF4A DNA FP,RanGTP-Impb inh
Cc1cc(C(=O)NNC(=S)NCc2ccco2)n(C)n1,1.1,9.2,·,1.0,5.5,-4.5,3.7
CC(=O)c1c(C)n(C)c2ccc(O)cc12,3.5,-57.9,?,3.2,-3.4,-1.2,3.8
CC1Cc2ccccc2N1CC(=O)N(C)c1c(N)n(Cc2ccccc2)c(=O)[nH]c1=O (stereo not given),13.6,34.3,6.5%,-2.5,·,7.5,·
Cc1nonc1NC(=O)OCCN1CCOC1=O,-0.2,8.3,-3.0%,-2.8,-16.2,-2.5,0.2
Cc1ccccc1N(CC(=O)NCc1ccccc1)C(=O)CCC(=O)Nc1nccs1,13.6,3.7,1.0%,6.9,-5.6,-1.3,6.8
CCCNC(=O)N1CCCC(C(N)=O)C1 (stereo not given),-5.1,-4.4,16.1%,0.9,-1.3,-2.9,?
CCOCCCNC(=O)c1cc(C)nn1-c1ccccc1,-2.1,-25.7,-0.8%,1.8,-6.7,0.3,0.7
CC(CC(=O)N1CCN(C(=O)c2ccccc2)CC1)c1ccccc1 (stereo not given),-15.2,-17.1,8.3%,-1.5,7.3,-6.1,4.5
NC(=O)C1CCN(C(=O)CSc2ccsc2[N+](=O)[O-])CC1,13.4,·,10.0%,·,·,-3.4,·
CCOC(=O)c1c(NC(=S)NC(C)=O)sc(C)c1C,-0.8,38.2,·,1.6,1.5,-5.8,-3.7
CC(CNC(=O)c1ccccc1Cl)c1ccccc1 (stereo not given),-0.4,-2.6,·,0.3,-9.0,0.3,1.2
C=CCN1C(=O)c2ccc(C(=O)N(CC)CC(=O)Nc3c(F)cccc3F)cc2C1=O,-5.3,2.9,5.0%,-2.3,3.0,5.1,0.7
COc1ccc(C(=O)NC(C)c2ccccc2)cc1Br (stereo not given),10.5,-9.4,-4.2%,-1.9,15.2,0.3,-1.2
